Compound activity as filed in PubChem BioAssay.
RN4220 kill = kills Staphylococcus aureus RN4220. hit rate 0.33% among 330,000. inhibition, % (test concentration not listed). S. aureus RN4220 growth, OD600, 16 h. AID 1259311;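 active = z-score of -3 or lower and OD600 up to 0.18 on both plates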;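 note: plate controls were untreated cells for no effect and reference antibiotic for full effect; stock transfer was 100 nL into about 80 µL; one replicate is shown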
ugtP null kill = compounds lethal to S. aureus RN4220 ugtP deletion mutant. OD600 growth, 16 h; some inactives read as strong as hits. growth inhibition, % (concentration not given with the values). hit rate 0.54% among 330,000. AID 1259309;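 active = z-score under -3 and OD600 up to 0.15 on both plates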;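 note: plate controls were untreated wells for no effect and antibiotic for full effect; wells of about 80 µL received 100 nL stock; the first replicate is given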
Autofluor counter = flagged as autofluorescent in microsphere protease counterscreen; hit rate 3.1% among 360,000; fluorescence intensity (concentration not given with the values); compound autofluorescence counterscreen, microsphere flow cytometry; active compounds read high; AID 624483;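 active = at least 3 SD above the mean of all compounds, about 16000 in these data; inconclusive = too few beads counted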;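 note: 100 nL of 1 mM stock went into each well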
PrP UTR inh = suppresses PrP 5' UTR mRNA reporter expression. hit rate 0.35% among 340,000. inhibition, % (test concentration not listed). cell-based PrP 5' UTR mRNA reporter, plate reader;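 active = every replicate at 50% or more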;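 note: 0 = median of the neutral control wells; tested in H4 reporter cells; numbers are from one replicate; inactives centre near -14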
BJeLR viability = BJeLR cell viability loss; BJeLR (HRASV12) viability, CellTiter-Glo ATP luminescence, 48 h; reference of the scale not given here; inhibition, % (no concentration beside the values); hit rate 0.17% among 300,000; AID 1554;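 active = replicate mean above 50%; inconclusive = above 50% but judged a plate artefact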;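 note: 50 nL library stock added to about 25 µL; numbers are from one replicate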
Mtb hypoxia inh = Mtb hypoxia fluorescent reporter inhibition | hit rate 0.1% among 300,000 | fluorescence inhibition, % (concentration not given with the values) | M. tuberculosis hypoxia-regulated fluorescent reporter, fluorescence | AID 1159583;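 active = 35 to 45% if threefold the growth effect, above 45% if 1.5-fold the growth effect; inactive = the rest, general growth blockers included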;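 note: wells of about 50 µL received 100 nL stock; 0% = vehicle wells and 100% = reference inhibitor wells; whole bacteria with a GFP reporter of the hypoxia response; strong numbers were not always called active; many hits fall short of the cut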
Mtb hypoxia inh growth = recorded beside Mtb hypoxia inh, whose call it bears; growth inhibition, %; measured here: M. tuberculosis growth (absorbance);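 0% = vehicle and 100% = reference antibiotic; read after six days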
* marks the source's active call; other numbers are inactive results; ? = inconclusive; . = not tested or not shown.

Sample of the layout:
Every second line gives: RN4220 kill	ugtP null kill	Autofluor counter	PrP UTR inh	BJeLR viability	Mtb hypoxia inh	Mtb hypoxia inh growth
CSc1ccc(C(=O)C2CCCN(C(=O)c3cc(C)n(C)n3)C2)cc1 (stereo not given)
 : 3.9	7	4223	-14	-1	6	1
CC(=O)C1=C(c2ccccc2)OC(N)=C(C#N)C1c1ccccc1F (stereo not given)
 : 8.5	8	2640	-35	0	7	6
CCC(C)NC(=O)CN1C(=O)C(CC)Sc2ccccc21 (stereo not given)
 : 6.7	5	4678	-25	-2	11	-4

Main list, previewed entries included:
Every second line gives: RN4220 kill	ugtP null kill	Autofluor counter	PrP UTR inh	BJeLR viability	Mtb hypoxia inh	Mtb hypoxia inh growth
CSc1ccc(C(=O)C2CCCN(C(=O)c3cc(C)n(C)n3)C2)cc1 (stereo not given)
 : 3.9	7	4223	-14	-1	6	1
CC(=O)C1=C(c2ccccc2)OC(N)=C(C#N)C1c1ccccc1F (stereo not given)
 : 8.5	8	2640	-35	0	7	6
CCC(C)NC(=O)CN1C(=O)C(CC)Sc2ccccc21 (stereo not given)
 : 6.7	5	4678	-25	-2	11	-4
C=CCNC(=O)CN(c1ccc(F)c(Cl)c1)S(C)(=O)=O
 : 1.9	1	4295	-24	2	3	5
COC(=O)C1C(=O)c2c([nH]c(C(=O)OC3CCCCCC3)c2C)CC1C (stereo not given)
 : 5.5	11	5959	-72	5	.	.
CC(=NNC(=O)COc1cc(C)cc(C)c1)c1cccc(NC(=O)C2CCC2)c1
 : 4.9	-3	.	.	.	-1	4
COc1cccc(C(=O)NCC(c2cccs2)N2CCOCC2)c1 (stereo not given)
 : 1.0	-4	3876	-1	.	2	5
CCOc1ccc(/C=C2\SC(=S)N(CCC(=O)Nc3ccc(C(=O)O)cc3)C2=O)cc1
 : 24	76	4009	-30	-2	16	0
O=C(CN1CCOCC1)N/N=C/c1ccc(-c2ccc(Br)cc2)o1
 : .	.	6291	-14	-7	.	.
COc1cccc(CNC2CCCCCCC2)c1OC
 : 5.1	5	3840	-21	13	13	14

Every second line gives: RN4220 kill	ugtP null kill	Autofluor counter	PrP UTR inh	BJeLR viability	Mtb hypoxia inh	Mtb hypoxia inh growth
O=C(Nc1ccc2c(c1)CCC2)c1cc(F)cc(F)c1
 : 2.3	1	3888	-107	.	.	.
O=C(c1ccc(S(=O)(=O)N2CCCCC2)cc1)N1CCN(c2ccccc2F)CC1
 : -3.3	6	2071	4	-1	-1	3
O=[N+]([O-])c1cc([N+](=O)[O-])c(Oc2c(Cl)cccc2Cl)cc1NN1CCCCC1
 : 4.8	8	3619	-9	4	19	6
Cc1ccc(S(=O)(=O)N(CC(=O)N=Nc2c(O)[nH]c3ccccc23)c2ccc(C)c(C)c2)cc1
 : 3.3	-7	2031	-4	.	-2	7
CC(=NOC(=O)c1cccc(C)c1)c1sc(-c2ccccc2)nc1C
 : -0.6	-6	.	.	.	-2	-1
CN(C(=NS(=O)(=O)c1cccs1)c1ccccc1)c1ccccc1
 : 13	7	.	.	.	7	3
CC(C)NC(=O)C1CCN(C2CCN(Cc3nc(C(C)C)cs3)CC2)CC1
 : 7.3	-4	3327	-11	3	7	5
COc1ccc(N2CCN(C(=O)c3cccn4c(=O)c5ccccc5nc34)CC2)cc1
 : 7.5	-63	5000	-16	10	13	7
COCCNC(=O)c1ccc(CSc2nc3ccccc3s2)cc1
 : 6.5	4	4636	-58	4	15	6
CCOC(=O)C1C2COc3ccccc3C2N2C(=O)c3cc(C)ccc3NC(=O)[C@@]12C (stereo not given in full)
 : 3.8	0	.	.	.	-1	4

Every second line gives: RN4220 kill	ugtP null kill	Autofluor counter	PrP UTR inh	BJeLR viability	Mtb hypoxia inh	Mtb hypoxia inh growth
OC(CN1CCN(Cc2ccc3c(c2)OCO3)CC1)c1c[nH]c2ccccc12 (stereo not given)
 : .	.	4933	2	-3	.	.
COc1cc(C)ccc1NC(=O)Cc1csc(NC(=O)Nc2ccccc2OC)n1
 : -12	-5	6886	-18	3	4	8
COc1ccccc1N1CCN(C(c2cc3cc(C)ccc3[nH]c2=O)c2nnnn2C2CCCC2)CC1 (stereo not given)
 : 3.8	-18	21854*	-16	-13	0	1
O=C(NCc1ccco1)c1ccccc1F
 : 2.2	-1	?	-9	12	11	9
CC1(C)CC2CC(C)(CN2C(=O)Cc2ccccc2)C1 (stereo not given)
 : 0.5	-13	3163	-12	-10	11	13
Cc1cccc(C(=O)OC(C)C(=O)NCC2CCCCC2)c1O (stereo not given)
 : 1.2	1	3326	-19	.	-3	6
Fc1ccccc1Nc1nc(-c2ccncc2)nc2ccccc12
 : 4.3	-11	2050	-14	-15	7	6
O=C(NNC(=S)NC(=O)c1ccccc1[N+](=O)[O-])c1ccc(Cl)cc1Cl
 : 25	-5	4184	-31	6	-1	6
O=C(NNc1c(Cl)cc(Cl)cc1Cl)c1cccc([N+](=O)[O-])c1
 : 1.5	-9	10571	9	-2	2	3
Cc1ccc(N=CC2=C(O)CC(C)(C)CC2=O)nc1
 : -8.6	-6	3178	-37	12	10	3

Some of these compounds in order of heavy-atom count, low to high:
Every second line gives: RN4220 kill	ugtP null kill	Autofluor counter	PrP UTR inh	BJeLR viability	Mtb hypoxia inh	Mtb hypoxia inh growth
O=C(NCc1ccco1)c1ccccc1F
 : 2.2	-1	?	-9	12	11	9
CC1(C)CC2CC(C)(CN2C(=O)Cc2ccccc2)C1 (stereo not given)
 : 0.5	-13	3163	-12	-10	11	13
Fc1ccccc1Nc1nc(-c2ccncc2)nc2ccccc12
 : 4.3	-11	2050	-14	-15	7	6
COc1cc(C)ccc1NC(=O)Cc1csc(NC(=O)Nc2ccccc2OC)n1
 : -12	-5	6886	-18	3	4	8

(next part)
Every second line gives: RN4220 kill	ugtP null kill	Autofluor counter	PrP UTR inh	BJeLR viability	Mtb hypoxia inh	Mtb hypoxia inh growth
COc1ccc(C=NNC(=O)c2ccn[nH]2)cc1COc1ccc(Cl)cc1
 : 1.7	-9	.	.	.	9	12
CCC1CCCCN1CCCNC(=O)c1ccc2c(c1)NC(=O)CS2 (stereo not given)
 : 2.5	2	6751	-15	-6	12	-4
CCN(CC)CCCNC(=O)CSc1nc2c(c(C(F)(F)F)n1)CCc1ccccc1-2
 : 2.3	9	3250	-14	5	1	2
Brc1ccc2nc(N3CCCC3)sc2c1
 : 6.5	2	4457	-77	-21	.	.
COC(=O)c1ccc(CSc2ccc3nnc(-c4ccc(OC)cc4)n3n2)o1
 : 2.3	6	.	.	4	-2	-17
COCCn1nnnc1C(c1cc2ccc(OC)cc2[nH]c1=O)N1CCN(C2CCCCC2)CC1 (stereo not given)
 : 8.8	3	7007	-9	-4	3	6
C=CCC(=O)OCCCCCCOc1ccc(C(=O)O)cc1
 : 6.6	9	4205	-23	-21	3	-1
CSc1nnnn1-c1c(C)cccc1C
 : 3.4	-1	4505	-14	-3	4	-7
CCN(CC)S(=O)(=O)c1cccc(C(=O)N[C@H](C(=O)OCC(N)=O)C(C)C)c1
 : -2.2	4	3660	-7	1	11	2
ON=Cc1ccc2ccccc2c1
 : 3.5	-5	.	.	.	6	9

Every second line gives: RN4220 kill	ugtP null kill	Autofluor counter	PrP UTR inh	BJeLR viability	Mtb hypoxia inh	Mtb hypoxia inh growth
O=C(Nc1cccnc1)c1sc(Nc2ccccc2F)nc1-c1ccccc1
 : 5.6	9	4470	-15	8	6	6
COc1ccc(NC(=O)CSc2nc(O)cc(=O)n2C)cc1
 : -7.3	4	2737	-27	0	14	3
COc1cc(/C=N/NC(=O)c2ccc3c(c2)OCO3)ccc1O
 : .	.	?	-20	3	.	.
Cn1cccc1CC(=O)N/N=C/c1cccc([N+](=O)[O-])c1
 : .	.	2079	-23	6	.	.
Cc1ccc(O)c(NC(=O)c2noc3c2CCCCC3)c1
 : 19	10	2657	-70	8	-2	-7
Cc1nn(-c2ccccc2)cc1C=NNC(N)=S
 : -9.3	-7	.	.	.	.	.
CN1/C(=C/C(=O)C2CC2)C(C)(C)c2ccccc21
 : 4.3	0	4195	-13	.	11	4
COc1ccc(NC(=O)CN2CCC(NC(=O)C3CCCCC3)CC2)c([N+](=O)[O-])c1
 : 0.4	2	3288	-2	-5	3	2
O=C(O)c1cc(O)c2c(c1)C(=O)c1cc(O)cc(O)c1C2=O
 : 6.2	0	4266	-13	8	.	.
CNC(=O)Nc1cc(C(F)(F)F)cc(C(F)(F)F)c1
 : 13	-19	.	-28	-5	6	14

Every second line gives: RN4220 kill	ugtP null kill	Autofluor counter	PrP UTR inh	BJeLR viability	Mtb hypoxia inh	Mtb hypoxia inh growth
COc1cc(=O)[nH]c(SCC(=O)Nc2ccc3ccccc3c2)n1
 : .	.	3936	-6	3	.	.
Cc1ccc(CN2CC(=O)N3C4c5cc(Cl)ccc5OCC4C(c4ccccc4)[C@]3(C)C2=O)cc1 (stereo not given in full)
 : -2.4	-1	.	.	.	-2	5
O=C(c1cc(-c2cccs2)nc2ccccc12)N1CCN(S(=O)(=O)c2cccc(F)c2)CC1
 : -2.4	0	2328	0	9	3	11
O=C(NNCc1ccc(O)cc1)c1ccccc1Cl
 : 1.4	1	5629	-29	-2	0	-5
O=C(Cn1ncc2c([nH]c3ccccc32)c1=O)NCCCN1CCN(c2ccccc2)CC1
 : 2.0	4	5798	-20	9	7	8
CC(C)c1ccccc1OCC(=O)Nc1nnc(C2CC2)s1
 : -5.1	-4	.	-20	.	1	0
Oc1cccc2ccc(C=Cc3ccc(Br)s3)nc12
 : 22	20	.	.	.	-3	6
CN=C1c2ccccc2CN1c1cccc(C(=O)OC)c1
 : -1.8	9	5755	2	3	.	.
CCC(CC)C(=O)NCCc1ccc(OC)cc1
 : -2.2	7	2136	-17	1	.	.
C=CCN(c1cccc(C(F)(F)F)c1)S(=O)(=O)c1cccc(C(=O)OCC(=O)NCCC)c1
 : 8.7	-11	2177	-36	-12	-11	-13

Every second line gives: RN4220 kill	ugtP null kill	Autofluor counter	PrP UTR inh	BJeLR viability	Mtb hypoxia inh	Mtb hypoxia inh growth
C=CCn1c(SCC(=O)C23CC4CC(CC(C4)C2)C3)nc(O)cc1=O
 : 7.8	3	4575	.	3	19	9
NC(=S)NNC(=S)Nc1ccccc1
 : 4.0	11	3642	-5	0	7	16
Cc1ccc2c(c1)C(SCC(=O)NCCc1ccccc1)CC1(CCCC1)O2 (stereo not given)
 : 2.3	4	4494	-2	-9	.	.
COc1ccc(OC)c(C(C(=O)NC2CCCCC2)N(C(=O)c2snc(C(N)=O)c2N)c2ccccc2OC)c1 (stereo not given)
 : .	.	2968	-11	11	.	.
N#CC1(NC(=O)COC(=O)c2ccc(-c3ccc(O)cc3)cc2)CCCCC1
 : 6.9	-1	.	3	.	1	-6
COc1ccc(S(=O)(=O)N2CCCC2C(=O)Nc2nnc(-c3cccnc3)s2)cc1 (stereo not given)
 : -1.3	2	12624	-4	-7	5	11
Cn1c(N)c(C(=O)Nc2ccccc2F)sc1=S
 : 1.3	-1	2914	-16	-7	3	9
COC(=O)c1c(-c2c(Cl)cccc2Cl)noc1NC(=O)NN1CCOCC1
 : 7.5	12	5607	-21	-3	9	2
Cn1cnnc1SCC(=O)Nc1ccccc1C(=O)NC1CC1
 : 0.0	3	2710	-25	0	.	.
c1ccc(-c2cn3nc4c(nc3n2)CCCC4)cc1
 : -9.9	9	2825	67*	13	.	.

Every second line gives: RN4220 kill	ugtP null kill	Autofluor counter	PrP UTR inh	BJeLR viability	Mtb hypoxia inh	Mtb hypoxia inh growth
C/C(=N\OCC(=O)OCC(=O)NCc1ccccc1)c1ccc2c(c1)OCO2
 : .	.	5483	-9	-3	.	.
CC(OC(=O)CNC(=O)c1ccc2ccccc2c1)C(=O)N(C)C1CCCCC1 (stereo not given)
 : -0.2	2	?	-5	-2	-3	2
CCCCNC(=O)c1onc(CSc2cccc(OCC)c2)c1C(=O)O
 : 11	-2	4020	-2	-7	2	4
Cc1ccc(S(=O)(=O)NCc2nc3nc(C)cc(C)n3n2)c(C)c1
 : -2.3	-7	6287	-19	11	-5	-2
CN(CC(=O)Nc1ccccc1Cl)CC(=O)Nc1c(F)cccc1F
 : .	.	4002	-25	-2	.	.
O=C(COC(=O)/C=C/c1ccc(Cl)cc1)NCCC1=CCCCC1
 : 8.8	7	9442	-14	-1	-2	-6
CC(OC(=O)Cc1ccccc1[N+](=O)[O-])C(=O)NC(=O)NC1CCCCC1 (stereo not given)
 : 3.6	2	3660	7	1	-3	5
N#C/C(=C\c1ccccc1)C(=O)Nc1cccnc1
 : 2.8	8	4087	-17	-8	-6	-3
CCCCn1c(O)c(C(C)=NCCCN(CC)CC)c(=O)[nH]c1=O
 : 4.7	1	23379*	-10	-4	0	19
